Assay outcomes deposited in PubChem by National Center for Advancing Translational Sciences (NCATS).
TRPML1 agonist: agonists of human TRPML1 channel. Q9GZU1. TRPML1-expressing cells, Ca2+ dye fluorescence, FDSS; host cell line not named in the record; reference of the full effect not given here. activation, % (concentration not given with the values). hit rate 0.12% among 410,000; in the data active = activation above about 50%; inconclusive = about 30% to 50%; inactive = below about 30%; further: 0% is about no effect; the text of the record puts the active cut at 80%
Target sequence (Q9GZU1 whole entry, looked up): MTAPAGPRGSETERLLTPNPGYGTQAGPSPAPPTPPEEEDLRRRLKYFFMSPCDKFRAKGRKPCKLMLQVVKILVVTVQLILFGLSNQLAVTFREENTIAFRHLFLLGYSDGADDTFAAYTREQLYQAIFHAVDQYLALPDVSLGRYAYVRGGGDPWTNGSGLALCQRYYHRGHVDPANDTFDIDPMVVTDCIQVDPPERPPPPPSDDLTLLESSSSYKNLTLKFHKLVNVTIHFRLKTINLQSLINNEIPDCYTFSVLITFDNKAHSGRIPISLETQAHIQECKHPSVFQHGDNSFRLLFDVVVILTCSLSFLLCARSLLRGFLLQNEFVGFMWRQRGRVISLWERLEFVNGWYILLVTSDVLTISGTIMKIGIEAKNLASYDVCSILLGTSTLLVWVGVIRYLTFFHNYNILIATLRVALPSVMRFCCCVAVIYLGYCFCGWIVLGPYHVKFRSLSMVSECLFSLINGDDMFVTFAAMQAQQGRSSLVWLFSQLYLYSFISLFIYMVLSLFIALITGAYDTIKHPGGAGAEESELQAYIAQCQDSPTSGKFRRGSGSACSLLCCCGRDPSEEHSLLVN
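Agonist activity was taken from a 110 s kinetic Ca2+ dye read on the FDSS after pinning compounds onto TRPML1-DL cells. The cells were seeded at 1,500/well with Tet inducer, incubated about 16 h, then dye-loaded at room temperature.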
PINK1 modulator: modulators of PINK1 expression. PINK1 immunofluorescence, high-content cytometry, 24 h. Potency, µM (highest dose often 76.6 µM), inactives show top-dose activation (PINK1 increase), usual class: activators. hit rate 0.2% among 410,000; active = well fitted activation curve with a large enough effect; inconclusive = small, poorly fitted or top-dose-only effect; inactive = flat fitted curve, though single readings scatter; cell line not stated here;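 further: potency means the concentration at half of the fitted maximal effect; % of control where 0% means no effect; nearly all actives have a fitted effect of over 65% in size; a mitochondrial uncoupler was the plate control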
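Readout is PINK1 immunofluorescence, quantified alongside mitochondrial, cell and nuclear markers by laser-scanning microplate cytometry. Cells from a stable line were exposed to compound titrations (5 concentrations) for 24 hours, with CCCP controls.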
Starred values were filed as active, the others as inactive. These rows are one share of the data. The share of hits here may be higher or lower than overall.

What do the screens show for `CCOc1ccccc1NC(=O)CSc1nccn1Cc1ccc(F)cc1`?
TRPML1 agonist: 1.6; PINK1 modulator: -1.2%

Results for CCCCOc1ccccc1C(=O)Nc1onc2c1CCCC2 ?
TRPML1 agonist: 1.1; PINK1 modulator: 0.4%

What do the screens show for `CCOC(=O)Cn1c(=O)oc2cc(S(=O)(=O)N3CCN(c4cccc(C)c4C)CC3)ccc21`?
TRPML1 agonist: 1.4; PINK1 modulator: 0.1%

Results for CCOc1ccc2oc(=O)cc(CN3CCN(C(=O)c4cccc(Cl)c4)CC3)c2c1 ?
TRPML1 agonist: -0.3; PINK1 modulator: 0.7%

Results for CCN(c1ccccc1)c1ncnc2c1cnn2-c1ccc(C)cc1C ?
TRPML1 agonist: 0.8; PINK1 modulator: 5.2%

How did CC(C)N(Cc1ccccc1)c1ncnc2c1nnn2C do in these assays?
TRPML1 agonist: -0.2; PINK1 modulator: -0.1%

How did COc1ccc2[nH]cc(CCNC(=O)Nc3ccc(F)cc3)c2c1 do in these assays?
TRPML1 agonist: 1.4; PINK1 modulator: 1.3%

What do the screens show for `Cn1c(=O)c2c(nc(SCC(=O)Nc3ccc(F)cc3)n2Cc2ccccc2F)n(C)c1=O`?
TRPML1 agonist: 2.4; PINK1 modulator: 0.5%

How did Fc1ccc(C(NCCc2ccccc2)c2nnc(-c3ccccc3Cl)o2)cc1 (stereo not drawn) do in these assays?
TRPML1 agonist: 2.6; PINK1 modulator: 5.7%

What do the screens show for `Cc1ccccc1OCC(=O)Nc1ccc(-c2nc3ccccc3o2)cc1`?
TRPML1 agonist: 1.5; PINK1 modulator: 4.4%

Results for CCC(=O)Oc1ccc(/C=C(\C#N)c2nc3ccccc3[nH]2)cc1OC ?
TRPML1 agonist: 2.2; PINK1 modulator: 2.5%

What do the screens show for `CCOc1ccc(CCNC(=O)C2CCCN(S(=O)(=O)N(C)c3ccc(F)cc3)C2)cc1` (stereo not drawn)?
TRPML1 agonist: -0.2; PINK1 modulator: -0.8%

Results for COc1ccc(CCNC(=O)CCCn2c(=O)c3cccn3c3ccc(F)cc32)cc1OC ?
TRPML1 agonist: 4.4; PINK1 modulator: 0.6%

Results for O=c1oc2ccccc2cc1-c1nnc(Nc2ccc(Cl)cc2Cl)s1 ?
TRPML1 agonist: 0.8; PINK1 modulator: 3.1%

How did COc1ccc(CCNC(=O)c2cnc3sc(N4CCCCCC4)nn3c2=O)cc1 do in these assays?
TRPML1 agonist: -0.4; PINK1 modulator: 0.6%

No new results follow: an excerpt of the list.
Results for O=c1oc2ccccc2cc1-c1nnc(Nc2ccc(Cl)cc2Cl)s1 ?
TRPML1 agonist: 0.8; PINK1 modulator: 3.1%

How did COc1ccc(CCNC(=O)c2cnc3sc(N4CCCCCC4)nn3c2=O)cc1 do in these assays?
TRPML1 agonist: -0.4; PINK1 modulator: 0.6%

(cont.)
How did CCOc1cccc(C2Nc3ccccc3-c3cc(C)nn32)c1O (stereo not drawn) do in these assays?
TRPML1 agonist: 0.9; PINK1 modulator: 5.0%

How did O=S(=O)(c1ccccc1)c1nc(-c2ccc(F)cc2)oc1NCc1ccccc1 do in these assays?
TRPML1 agonist: -0.1; PINK1 modulator: 4.2%

What do the screens show for `Cc1cn2c(=O)cc(COC(=O)c3ccc(NC(=O)c4ccc(F)cc4)cc3)nc2s1`?
TRPML1 agonist: 2.5; PINK1 modulator: -1.5%

How did COc1ccc(Cl)cc1C(=O)Nc1ccc([N+](=O)[O-])cc1Cl do in these assays?
TRPML1 agonist: -0.2; PINK1 modulator: 0.7%

What do the screens show for `CCN(C(=O)Cn1c(=O)oc2cc(S(=O)(=O)N3CCCCCC3)ccc21)c1cccc(C)c1`?
TRPML1 agonist: 0.3; PINK1 modulator: 0.3%

What do the screens show for `CCOC(=O)c1c(C)oc2nc(C)nc(NCc3ccc(OC)cc3OC)c12`?
TRPML1 agonist: 0.0; PINK1 modulator: -0.2%

What do the screens show for `CCN1CCN(C(c2ccc(OC)cc2)c2c(O)cc(C)n(Cc3ccco3)c2=O)CC1` (stereo not drawn)?
TRPML1 agonist: -0.1; PINK1 modulator: 1.0%

Results for COc1ccc(Nc2nnc(-n3nc(C)cc3C)c3ccccc23)cc1 ?
TRPML1 agonist: 0.0; PINK1 modulator: -0.3%

How did Cc1ccc(N2C(=O)[C@@H]3CSC(c4ccc(F)cc4)N3C2=O)cc1 (stereo partly drawn) do in these assays?
TRPML1 agonist: 4.2; PINK1 modulator: 0.1%

What do the screens show for `Cc1cc(C)cc(NC(=O)NCCc2c(C)nn(C)c2C)c1`?
TRPML1 agonist: -0.3; PINK1 modulator: 0.1%

Results for Cc1nnc(SCc2cc(=O)c3cc(F)ccc3[nH]2)n1C ?
TRPML1 agonist: 1.3; PINK1 modulator: 4.7%

Results for CCCCc1nn2c(=O)cc(COC(=O)c3ccc(NC(=O)C(CC)CC)cc3)nc2s1 ?
TRPML1 agonist: 1.2; PINK1 modulator: 1.0%

How did O=C(Nc1ccccc1F)C(Cc1ccccc1)n1cccc1 (stereo not drawn) do in these assays?
TRPML1 agonist: 2.7; PINK1 modulator: -0.6%

What do the screens show for `CCn1cc(C(=O)NCCc2ccc(OC)c(OC)c2)c(=O)c2cc(S(=O)(=O)N(C)C3CCCCC3)ccc21`?
TRPML1 agonist: 0.6; PINK1 modulator: 0.9%

Results for COc1ccc(N2CCN(C(=O)CCn3c(=O)[nH]c4cc(OC)c(OC)cc4c3=O)CC2)cc1 ?
TRPML1 agonist: -0.3; PINK1 modulator: 2.1%

Ordered by SMILES length (descending): five of the compounds above
What do the screens show for `CCn1cc(C(=O)NCCc2ccc(OC)c(OC)c2)c(=O)c2cc(S(=O)(=O)N(C)C3CCCCC3)ccc21`?
TRPML1 agonist: 0.6; PINK1 modulator: 0.9%

What do the screens show for `CCN(C(=O)Cn1c(=O)oc2cc(S(=O)(=O)N3CCCCCC3)ccc21)c1cccc(C)c1`?
TRPML1 agonist: 0.3; PINK1 modulator: 0.3%

What do the screens show for `CCOC(=O)c1c(C)oc2nc(C)nc(NCc3ccc(OC)cc3OC)c12`?
TRPML1 agonist: 0.0; PINK1 modulator: -0.2%

Results for Cc1nnc(SCc2cc(=O)c3cc(F)ccc3[nH]2)n1C ?
TRPML1 agonist: 1.3; PINK1 modulator: 4.7%

How did O=C(Nc1ccccc1F)C(Cc1ccccc1)n1cccc1 (stereo not drawn) do in these assays?
TRPML1 agonist: 2.7; PINK1 modulator: -0.6%

Following part.
How did O=C1CCSc2ccc(S(=O)(=O)Nc3cccc(C(F)(F)F)c3)cc2N1 do in these assays?
TRPML1 agonist: 2.3; PINK1 modulator: -0.7%

What do the screens show for `Nc1nonc1-c1nc2ccccc2n1CC(=O)Nc1cccc(C(F)(F)F)c1`?
TRPML1 agonist: 3.0; PINK1 modulator: 2.4%

Results for COc1ccccc1Cn1cc(C(=O)c2ccc(C)cc2)c(=O)c2cc(C)ccc21 ?
TRPML1 agonist: 1.3; PINK1 modulator: 0.2%

What do the screens show for `COC(=O)c1c(NC(=O)CCCOc2ccccc2C)sc2c1CCC(C)C2` (stereo not drawn)?
TRPML1 agonist: 0.8; PINK1 modulator: 3.6%

Results for O=C(NC1CCCC1)c1ccc(CSc2nc3cccnc3n2Cc2ccccc2)cc1 ?
TRPML1 agonist: 2.3; PINK1 modulator: 0.2%

Results for O=C(NCc1ccccc1Cl)c1ccc2c(c1)NC(=O)C(CS(=O)(=O)Cc1ccc(Cl)cc1)N2 (stereo not drawn) ?
TRPML1 agonist: 0.1; PINK1 modulator: 1.7%

What do the screens show for `COc1ccc(C(=O)NCCn2cc(SCC(=O)Nc3ccc4c(c3)OCCO4)c3ccccc32)cc1OC`?
TRPML1 agonist: 0.2; PINK1 modulator: 0.4%

How did Cc1nn(-c2ccccc2)c2sc(C(=O)Nc3cccc(O)c3)cc12 do in these assays?
TRPML1 agonist: 0.6; PINK1 modulator: 1.2%

How did COc1cccc(Cn2c(=O)n(-c3cccc(Cl)c3C)c(=O)c3c4c(sc32)CN(C(C)=O)CC4)c1 do in these assays?
TRPML1 agonist: -0.1; PINK1 modulator: 0.1%

How did O=C(NCCc1ccccc1)c1c[nH]c2ccc(S(=O)(=O)Nc3ccc(F)cc3F)cc2c1=O do in these assays?
TRPML1 agonist: 1.5; PINK1 modulator: 13%

How did COc1cc(Cl)c(C)cc1NC(=O)c1cc2c(s1)-c1c(C)cccc1OC2 do in these assays?
TRPML1 agonist: 0.5; PINK1 modulator: -1.0%

Results for CCOc1ccc(NC(=O)c2sc(-n3nc(C)c(Cc4ccc(Cl)cc4)c3C)nc2C)cc1 ?
TRPML1 agonist: -0.2; PINK1 modulator: 1.7%

How did Cc1cc2c(cc3c(SCC(=O)Nc4cccc(Cl)c4C)nnc(C)n32)o1 do in these assays?
TRPML1 agonist: 1.1; PINK1 modulator: 1.2%

Results for Cc1cccc(-c2nc(SCC(=O)Nc3ccc4c(c3)OCCO4)c(-c3ccccc3)[nH]2)c1 ?
TRPML1 agonist: -0.2; PINK1 modulator: -1.4%

What do the screens show for `Cc1cnc(=O)[nH]c1SCC(=O)Nc1cc(C(F)(F)F)ccc1Cl`?
TRPML1 agonist: -1.2; PINK1 modulator: 0.5%

Results for Cc1ccc(S(=O)(=O)c2c(Nc3ccccc3)sc(C(=O)c3ccc4c(c3)OCO4)c2N)cc1 ?
TRPML1 agonist: 2.0; PINK1 modulator: 4.7%

Results for O=C(Cn1c(=O)n(-c2ccc(F)cc2)c(=O)c2sccc21)Nc1cccc(C(F)(F)F)c1 ?
TRPML1 agonist: 2.1; PINK1 modulator: 1.2%

How did Cc1ccc2onc(CC(=O)N3CCN(c4ccccc4)CC3)c2c1 do in these assays?
TRPML1 agonist: 1.2; PINK1 modulator: -0.1%

How did COc1cc(C2c3c(-c4ccccc4O)n[nH]c3C(=O)N2Cc2ccncc2)cc(OC)c1OC (stereo not drawn) do in these assays?
TRPML1 agonist: 1.5; PINK1 modulator: 4.5%

How did CCOC(=O)c1c(NC(=O)/C=C/c2ccc(C)cc2)sc(C(C)=O)c1C do in these assays?
TRPML1 agonist: -0.9; PINK1 modulator: -1.1%

How did O=C(NCCc1ccccc1)c1ccc(CS(=O)(=O)Cc2ccccc2Cl)o1 do in these assays?
TRPML1 agonist: 1.6; PINK1 modulator: 0.4%

What do the screens show for `CCc1ccccc1NC(=O)Cn1c(=O)ccc2cc(S(=O)(=O)N3CCCC3)ccc21`?
TRPML1 agonist: 0.7; PINK1 modulator: -3.5%

What do the screens show for `O=C(CCn1ccc2cc(S(=O)(=O)N3CCCC3)ccc21)NCc1cccc(Br)c1`?
TRPML1 agonist: -1.1; PINK1 modulator: -1.0%

What do the screens show for `CC(C)c1nn2c(=O)cc(COC(=O)c3cccc(NC(=O)COc4ccc(F)cc4)c3)nc2s1`?
TRPML1 agonist: 0.9; PINK1 modulator: 1.8%

Results for O=C(Cn1c(=O)oc2cc(S(=O)(=O)N3CCCC3)ccc21)NCc1ccc(Cl)cc1 ?
TRPML1 agonist: 0.4; PINK1 modulator: -3.7%

How did CCCC(CCC)C(=O)Nc1cccc(-c2nc3cccnc3s2)c1 do in these assays?
TRPML1 agonist: -0.5; PINK1 modulator: 3.2%

Results for COc1cccc(CNC(=O)C(=O)NCC(c2cccs2)S(=O)(=O)c2ccccc2)c1 (stereo not drawn) ?
TRPML1 agonist: 2.0; PINK1 modulator: -1.0%

Results for O=C(NCCCc1nc2ccccc2n1CCCCOc1ccccc1)C1CCCCC1 ?
TRPML1 agonist: 0.1; PINK1 modulator: 2.8%

How did O=C(CCc1nc(CN2CCN(S(=O)(=O)c3ccc(F)cc3)CC2)no1)N1CCCCC1 do in these assays?
TRPML1 agonist: 0.0; PINK1 modulator: -1.5%

Results for CC(C)(C)OC(=O)N1CCC(c2c(C(=O)NCCN3CCC(Cc4ccccc4)CC3)cnn2-c2ccccc2)CC1 ?
TRPML1 agonist: 3.7; PINK1 modulator: -1.2%

What do the screens show for `COc1ccccc1NC(=O)N1CCC(CN2CCc3ccccc3C2)CC1`?
TRPML1 agonist: -0.5; PINK1 modulator: 0.2%

Results for CCc1ccc(-n2nc(C)c3c(C)cc(=O)n(CC(=O)Nc4ccc(OC)c(OC)c4)c32)cc1 ?
TRPML1 agonist: -0.6; PINK1 modulator: 0.3%

What do the screens show for `CCCCOc1cccc(C2c3c(-c4cc(C)ccc4O)n[nH]c3C(=O)N2CCOC)c1` (stereo not drawn)?
TRPML1 agonist: 2.1; PINK1 modulator: 2.2%

What do the screens show for `Cc1ccc(CNC(=O)CCCN2C(=O)CCn3nc(-c4cn(C)c5ccccc45)cc32)cc1`?
TRPML1 agonist: 0.9; PINK1 modulator: 2.7%

What do the screens show for `O=C(Nc1ccccc1Cl)c1ccc(F)c(S(=O)(=O)NCc2ccc(Cl)c(Cl)c2)c1`?
TRPML1 agonist: 4.1; PINK1 modulator: 0.5%

How did CN1CCN(CCCNC(=O)Cn2c(-c3cccs3)cc3cc(Cl)ccc32)CC1 do in these assays?
TRPML1 agonist: 0.0; PINK1 modulator: 6.3%

Results for COCCCNC(=O)c1ccc2c(c1)nc1n2CCCCC1 ?
TRPML1 agonist: 0.4; PINK1 modulator: 4.2%
